gsp agonist: activates gsp, the McCune-Albright syndrome mutation; gsp mutant cells, cAMP HTRF, 30 min; control for the full effect not named in the record; Potency, µM (doses to about 76.9 µM), without a hit: top-dose activation (cAMP increase), hits mostly activators; 340,000 tested, 0.13% active; active = well fitted activation curve with a large enough effect; inconclusive = small, poorly fitted or top-dose-only effect, or another doubt; inactive = no such curve, though single readings can be large or run the other way; cell line not stated here;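 further: phosphodiesterase inhibitor Ro 20-1724 added with compounds to block cAMP breakdown; potency means the concentration at half of the fitted maximal effect; nearly all actives have a fitted effect of over 60% in size; about a fifth of the inactives were tested at one dose only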
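Cells stably selected in G418 were plated at 2000/well, grown 16-24 hr, then given compounds in DMSO with the PDE inhibitor […] (300 uM solution added) for 30 min at 37C; cAMP was read by HTRF.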
gsp antag: gsp mutant antagonism; AID 624288; 340,000 tested, 0.4% active; gsp-mutant cells, cAMP HTRF, 30 min; control for the full effect not named in the record; Potency, µM (top dose mostly 76.9 µM), inactives show at the highest dose activity change, negative = inhibition, hits mostly inhibitors; active = falling curve of any shape with a large fitted effect; inconclusive = falling curve, mostly with a smaller effect; inactive = flat or rising curve; cell line not stated here;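 further: intracellular cAMP measured with PDE inhibitor Ro 20-1724 present during compound exposure; potency means the concentration at half of the fitted maximal effect; on the % scale 0 is the no-effect control and ±100 the full control effect; nearly all actives have a fitted effect of over 65% in size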
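G418-selected cells were plated in DMEM/10% FBS for 16-24 h at 37C, then treated with compounds plus the PDE inhibitor […] (300 uM solution added) for 30 min at 37C. Intracellular cAMP was measured by HTRF after 30 min lysis at room temperature.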
CtBP-E1A inh: inhibitors of CtBP/E1A interaction; AlphaScreen GST-E1A/His-CtBP binding, 1536-well; stronger effect = lower value; control for the full effect not named in the record; activity change, % (concentration not given with the values); 340,000 tested, 0.49% active; AID 651724; in the data active means activity change below about -65%; inconclusive means about -30% to -65%; inactive means above about -30%; further: on the % scale 0 is the no-effect control and ±100 the full control effect
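In 5 uL wells, 23 nL compound meets equimolar GST-E1A and His-CtBP (5X stock 125 nM each) for 2 h, 37 °C. Beads (5X, 50 ug/mL) then 1 h, 37 °C, dark.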
ClpP mod: qHTS Assay for Activators of ClpP; 340,000 tested, 1.9% active; purified B. subtilis ClpP, FRET peptide cleavage, 20 min; AID 651965, 2013; ATP-dependent Clp protease proteolytic subunit (Bacillus subtilis (strain 168)), P80244; Potency, µM (highest dose often 57.5 µM), without a hit: top-dose activity change, negative = active; active = well fitted falling curve with a large enough effect; inconclusive = small, poorly fitted or top-dose-only effect; inactive = no such curve, though single readings can be large or run the other way; further: potency means the concentration at half of the fitted maximal effect; the source files actives as falling curves though it sought activators and does not explain the sign; nearly all actives have a fitted effect of over 65% in size; many hits overshoot -100%
Target sequence (P80244 whole entry, looked up): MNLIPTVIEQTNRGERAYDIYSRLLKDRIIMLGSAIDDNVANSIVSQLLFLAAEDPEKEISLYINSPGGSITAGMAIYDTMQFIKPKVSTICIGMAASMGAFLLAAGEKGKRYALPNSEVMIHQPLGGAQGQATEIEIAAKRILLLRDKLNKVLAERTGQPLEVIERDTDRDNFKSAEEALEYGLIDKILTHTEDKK
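ClpP 10 microg/mL final, pH 8 Tris/KCl buffer with BSA, glycerol, Tween-20; compound pinned in; FRET-FV substrate; RT 20 min; Ex320/Em430; ΔFRET vs ADEP 5.8 microM, DMSO, no enzyme.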
Sfp PPTase inh: blocks B. subtilis Sfp PPTase activity. Q9F4F7. Biochemical Sfp PPTase activity, qHTS. Potency, µM, for inactives: max response, negative = inhibition, most hits filed as inhibitors. 310,000 tested, 3.5% active. AID 1490; active means well fitted inhibition curve with a large enough effect; inconclusive means small, poorly fitted or top-dose-only effect, or another doubt; inactive means no such curve, though single readings can be large or run the other way;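 further: the enzyme is Sfp with the accession as filed and its product quenches rhodamine fluorescence; potency means the concentration at half of the fitted maximal effect; 0% = enzyme reaction without inhibitor and -100% = no enzyme wells; top concentration of the series not given in the record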
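Sfp 15 nM + cpd, 15 min RT; start w/ rhodamine-CoA 5 uM, BHQ-2-YbbR 12.5 uM (final); 50 mM Hepes pH 7.6, 10 mM MgCl2, 0.01% NP-40, 0.01% BSA; read 525/598 nm at 0 and 30 min.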
Menin-MLL FL inh: inhibitors of human menin-MLL interaction, wild-type MLL peptide | FP activity change, % at 61.4 µM | 290,000 tested, under 10 active | Fluorescence polarization, fluorescein-MLL peptide displacement from menin; inconclusive = falling polarisation curve, or a change in total fluorescence; inactive = total fluorescence flat and polarisation flat or rising; no compound was filed as active; the % refers to the polarisation; negative = inhibition;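 further: % of control where 0% means no effect; inhibitors lower the polarisation; unlabelled MLL peptide was the positive control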
TRPV1 potentiator: enhances activation of the human vanilloid receptor TRPV1 | Q8NER1 | TRPV1-expressing cells, Fluo-8 calcium influx, capsaicin EC20 potentiation; host cell line not named in the record; control for the full effect not named in the record | potentiation, % at 8.33 µM | 320,000 tested, 0.02% active | AID 540277; active means potentiation above 80%; inconclusive means 30% to 80%; inactive means below 30%; further: 0% is about no effect
Target sequence (Q8NER1 whole entry, looked up): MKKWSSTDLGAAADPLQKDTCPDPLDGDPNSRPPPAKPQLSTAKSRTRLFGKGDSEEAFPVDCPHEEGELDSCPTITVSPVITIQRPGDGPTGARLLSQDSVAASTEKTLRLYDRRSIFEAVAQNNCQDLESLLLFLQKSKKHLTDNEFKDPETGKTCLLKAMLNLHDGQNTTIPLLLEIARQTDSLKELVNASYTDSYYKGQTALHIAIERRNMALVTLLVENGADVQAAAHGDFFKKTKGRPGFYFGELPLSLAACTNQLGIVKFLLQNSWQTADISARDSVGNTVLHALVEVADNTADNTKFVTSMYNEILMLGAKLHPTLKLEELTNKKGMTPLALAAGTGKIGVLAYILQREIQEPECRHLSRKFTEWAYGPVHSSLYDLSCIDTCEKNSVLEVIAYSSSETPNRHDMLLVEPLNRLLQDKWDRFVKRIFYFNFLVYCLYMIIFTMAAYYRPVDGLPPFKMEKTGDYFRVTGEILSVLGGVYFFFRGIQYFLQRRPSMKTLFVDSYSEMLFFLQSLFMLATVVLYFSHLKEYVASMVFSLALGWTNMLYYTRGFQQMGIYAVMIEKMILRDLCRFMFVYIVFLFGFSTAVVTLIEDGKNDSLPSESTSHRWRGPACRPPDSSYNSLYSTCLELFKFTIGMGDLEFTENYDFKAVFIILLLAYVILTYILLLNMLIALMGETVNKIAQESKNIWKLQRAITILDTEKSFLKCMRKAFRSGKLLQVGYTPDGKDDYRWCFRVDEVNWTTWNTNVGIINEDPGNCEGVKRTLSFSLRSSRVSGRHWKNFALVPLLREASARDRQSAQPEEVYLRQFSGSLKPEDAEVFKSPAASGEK
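Fluo-8 calcium influx in TRPV1-expressing cells, kinetic read (ex 480/em 520 nm). Compound added and read 3 min for agonist activity, followed by capsaicin at EC20 final and 2 min further read for enhancement.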
The depositor's hits bear a star; ? = inconclusive; . = not tested or not shown; & = joins results of further samples; [ ] = remark or other dose.

SMILES	gsp agonist	gsp antag	CtBP-E1A inh	ClpP mod	Sfp PPTase inh	Menin-MLL FL inh	TRPV1 potentiator
COc1ccc(OC)c(C2C(C(=O)N(C)C)=C(C)Nc3nc4ccccc4n32)c1 (stereo not given)	?	-4%	-1	-13%	-2%	1.3	-1
COc1ccc(-c2cc(=O)oc3cc(OCC(=O)N4C[C@H]5C[C@@H](C4)c4cccc(=O)n4C5)ccc23)cc1	.	-17%	4	5.0%	0%	-0.8	-1
O=C(CCCCn1c(=O)c2ccccc2n(Cc2ccc(Cl)cc2)c1=O)NCc1ccco1	0%	8%	-3	-10%	2%	1.9	?
Cc1cccnc1NC(=O)c1ccc([N+](=O)[O-])o1	-4%[15.4 µM]	9%	11	-4.5%	7%	0.7	7
COc1ccc(/C=C2\SC(=S)N(NC(=O)c3ccncc3)C2=O)cc1OC	.	.	.	.	-9%	?	2
O=C(COC(=O)C(O)C(O)C(=O)OCC(=O)c1ccc(C(F)(F)F)cc1)c1ccc(C(F)(F)F)cc1 (stereo not given)	6%[15.4 µM]	15%	8	.	2%	2.8	1
CCCCn1c(Cl)nc2c1c(=O)n(C)c(=O)n2C	?	-7%	-1	0.7%	22%	5.0	-5
CCSc1nnc(-c2ccccc2SC)o1	?	6%	8	.	10%	3.9	-27
Cc1ccnc(SCC(=O)c2cc3ccccc3o2)n1	7%	-7%	0	.	-27%	6.5	-2
O=C(c1ccc(COc2ccc3ccccc3c2)o1)N1N=C(C(F)F)CC1(O)C(F)F (stereo not given)	-61%[inhibitor]	?	21	-1.8%	32µM*	1.1	24
COc1ccc(-c2ccc(-c3noc(-c4ccccc4C)n3)c(OC)n2)cc1	40%	0%	10	?	?	13	20
CCC(=O)Nc1nc2nc(-c3ccccc3)cc(-c3ccccc3)n2n1	-32%	4%	2	3.4%	14%	-0.8	0
Cc1ccc(CCNC(=O)CCNS(=O)(=O)c2ccc3c(c2)c(=O)n(C)c(=O)n3C)cc1	3%	-4%	-17	-8.2%	15%	0.8	0
CC1(C)CC(=O)N(c2cccc(C(F)(F)F)c2)C(=O)C1	-7%	-4%	10	1.1%	9%	-1.5	9
O=c1c2cnn(-c3ccccc3)c2ncn1CCc1ccccc1	-12%	-7%	-1	-13%	7%	2.5	-15
O=C(NC(Cc1ccccc1)C(=O)NCc1ccccn1)c1ccco1 (stereo not given)	23%	-3%	-10	-1.5%	3%	1.2	15
O=C(COC(=O)c1cccc(O)c1)Nc1nnc(-c2ccccc2)o1	-3%[15.4 µM]	5%	?	-2.5%	.	.	3
O=C(O)c1ccccc1C(=O)Nc1ccc(-n2nc(C(F)(F)F)cc2C(F)(F)F)cc1	-5%	10%	2	.	10%	2.4	-8
COCCCn1c(-c2ccc(Cl)cc2)n[nH]c1=S	-12%	-1%	-3	-9.7%	2%	3.6	6
Cc1ccc(C(=O)N2CCN(S(C)(=O)=O)C2)cc1	-4%	5%	5	-1.9%	5%	-0.4	-2
COc1cccc(CNC(=O)CCNC(=O)N2CCn3c2nc2ccccc23)c1	11%	-6%	-1	0.4%	18%	5.4	1
O=C(NCc1ccc(F)cc1)C1CCCN(c2cnccn2)C1 (stereo not given)	17%	0%	.	-10%	11%	.	-16
CS(=O)(=O)N1CCN(C(=O)Cc2ccc(Br)cc2)CC1	7%	7%	7	0.7%	3%	-2.5	-2
Cc1ccc(S(=O)(=O)NCc2ccccc2)cc1C(=O)N1CCN(S(=O)(=O)c2ccccc2)CC1	4%	-12%	5	-0.5%	.	.	6
CC1=C(c2ccccc2)C=NNCC1=O	-20%	2%	5	.	.	.	.
O=C(NCc1ccccc1OC(F)(F)F)C1CCC(=O)N(CCCN2CCOCC2)C1 (stereo not given)	?	.	2	-2.6%	.	.	.
CCN(c1ccc(N=Cc2c(O)n(Cc3ccc(OC)cc3)c(=O)c3ccccc23)cc1)C(C)C	-9%[15.4 µM]	14%	10	.	-5%	3.9	-7
Cc1ccc(C2C(C#N)=C(N)Oc3cc(N)ccc32)cc1 (stereo not given)	-29%	-11%	.	-4.2%	-11%	0.0	20
COc1ccccc1CNC(=O)[C@@H]1CCCN1S(=O)(=O)c1ccc(Cl)cc1	-39%[inhibitor]	-3%	3	.	13%	0.1	27
O=C(O)CCN(CCC(=O)O)c1ccccc1	-35%[inhibitor]	-8%	1	-5.6%	7%	2.8	-35
CN(Cc1ccccc1)Cc1c(O)ccc2ccccc12	8%[15.4 µM]	3%	-4	-2.4%	-17%	0.2	2
CCn1c(O)c(C=Nc2ccccc2)sc1=S	-43%[inhibitor]	-16%	8	.	56µM*	21	-3
Cc1ccc(C)c(C(=O)COC(=O)c2cc(Cl)nc3ccccc23)c1	24%	-10%	18	-24%	-11%	3.8	0
O=C1OC(N2C(=O)CC[C@H]2C(=O)NCC2CCCO2)c2ccccc21 (stereo not given in full)	.	9%	8	-0.3%	13%	0.3	5
COc1cccc(OCCNc2cc(N3CCOCC3)ccc2[N+](=O)[O-])c1	-8%	-12%	-27	-15%	4%	5.6	28
COC(=O)c1ccc(COC(=O)C2CC(O)CN2S(=O)(=O)c2ccc([N+](=O)[O-])cc2)cc1 (stereo not given)	-26%	-16%	1	0.9%	.	.	-1
CSc1ncccc1C(=O)OCC(=O)Nc1ccc2c(c1)OCO2	3%[15.4 µM]	.	0	.	-13%	-0.2	-7
Cc1ccc(C)c(S(=O)(=O)N2CCN(C(=O)c3ccccc3Cc3ccccc3)CC2)c1	10%[15.4 µM]	-29%	2	.	.	.	25
NCCCCCC(=O)O	.	0%	5	-1.2%	21%&22%	?	4
Nc1nc(NCc2ccco2)nn1-c1ccccc1	-20%	20%	0	1.2%	17%	-0.4	-1
CN(C(=O)COC(=O)/C=C/c1ccc(Cl)c(Cl)c1)c1c(N)n(Cc2ccccc2)c(=O)[nH]c1=O	5%	6%	?	-0.6%	.	.	-1
O=C(CNS(=O)(=O)c1ccc(Br)cc1)N1CCN(c2ccc(F)cc2)CC1	-9%	-6%	5	-1.2%	0%	-0.7	-63
O=C(COC(=O)c1cc(S(=O)(=O)N2CCOCC2)ccc1Cl)NCc1ccccc1	17%	9%	0	0.7%	.	.	.
C=CCn1c(-c2ccc(Cl)cc2)c[nH]c1=S	-23%	-16%	-13	-9.6%	3%	-0.2	-18
COC(=O)c1ccc(COc2ccccc2/C=C/C(=O)c2ccc(OCC(=O)O)cc2)cc1	13%	-27%	?	.	?	3.1	2
CCCc1nc2ccc(NC(=O)NCCC(=O)OCC)cc2c(=O)n1Cc1ccc(Cl)cc1	2%	-5%	-4	?	-1%	2.7	-4
CC(Oc1cccc(Cl)c1)C(=O)NC1CC(C)(C)NC(C)(C)C1 (stereo not given)	-27%	2%	-2	-0.6%	13%	.	-1
CSc1ccc(/C=N/N2CCN(Cc3ccc(Cl)cc3)CC2)cc1	19%	5%	-15	-1.9%	-4%	3.2	-5
CCOC(=O)C1CCN(c2nc3ccccc3nc2C(C#N)C(=O)OCCOC)CC1 (stereo not given)	23%	6%	0	1.3%	2%	?	-6
CC1CCCCC12NC(=O)N(CC(=O)OCc1cccc(F)c1)C2=O (stereo not given)	-15%	1%	.	-0.6%	.	.	1
Cn1cc(S(=O)(=O)N2CCCC2)cc1C(=O)NCc1ccc(Cl)cc1	-33%[inhibitor]	-4%	3	-0.8%	-2%	-2.0	-6
Cc1c(C)c([N+](=O)[O-])c(C)c(C)c1N	-2%	-7%	0	-3.5%	.	.	.
O=C(N/N=C/c1ccccn1)c1sc2ccccc2c1Cl	6%	6%	.	-3.1%	-10%	?	.
COc1cccc(CNS(=O)(=O)/C=C/c2ccc(OC)c(OC)c2)c1	-1%[15.4 µM]	6%	.	.	11%	-4.1	11
CC(=O)c1cccc(NC(=O)C2=CC(c3ccc4c(c3)OCO4)=NS(=O)(=O)N2C)c1	0%	-20%	-7	0.5%	8%	.	1
Cc1ccc(N2C(=O)c3cccc4c([N+](=O)[O-])ccc(c34)C2=O)c2cccnc12	0%	-6%	.	-0.2%	-21%	?	2
COc1ccc(NC(=O)Cn2nnc(C(=O)NCc3ccco3)c2N)c(OC)c1	-22%	22%	1	-1.3%&0.1%	10%	4.4	8
CN1CCN(c2sc(S(C)(=O)=O)nc2S(=O)(=O)c2ccc(Cl)cc2)CC1	21%	-8%	1	0.1%	11%	.	-8
Nc1c(S(=O)(=O)c2ccccc2)csc1C(=O)O	-5%[15.4 µM]	13%	.	.	11%	-3.6	1
COc1ccc(CCN2C(=O)CSC2c2cccc([N+](=O)[O-])c2)cc1OC (stereo not given)	-25%	5%	9	1.6%	30%	-0.1	-16

Single records (already shown). Values in the order: gsp agonist	gsp antag	CtBP-E1A inh	ClpP mod	Sfp PPTase inh	Menin-MLL FL inh	TRPV1 potentiator
O=C(CNS(=O)(=O)c1ccc(Br)cc1)N1CCN(c2ccc(F)cc2)CC1 as listed: -9%	-6%	5	-1.2%	0%	-0.7	-63
CCCc1nc2ccc(NC(=O)NCCC(=O)OCC)cc2c(=O)n1Cc1ccc(Cl)cc1 as listed: 2%	-5%	-4	?	-1%	2.7	-4

(more compounds)
SMILES	gsp agonist	gsp antag	CtBP-E1A inh	ClpP mod	Sfp PPTase inh	Menin-MLL FL inh	TRPV1 potentiator
CC(C)(C)n1cnc2cc(NC(=O)c3ccco3)ccc21	3%[15.4 µM]	3%	0	.	1%	-2.4	3
CC1(C(=O)Nc2ccccc2)Cc2ccccc2C(=O)O1 (stereo not given)	?	5%	6	.	10%	-0.7	6
N#Cc1ccc(-c2cccnc2)nc1SCc1ccc(Cl)cc1Cl	13%	-8%	8	?	?	2.4	-7
CC(C)(C)c1ncc(S(=O)(=O)c2ccc(C(F)(F)F)cn2)c(N)n1	15%[15.4 µM]	5%	3	-4.0%	10%	4.0	-19
Cn1cccc1Cc1nnc(SCC(=O)NCc2ccc3c(c2)OCO3)n1CCc1ccccc1	-2%	-12%	-16	2.0%	-4%	3.4	10
CCN(c1ccc(NC(=O)CN2C(=O)NC3(CCOc4ccccc43)C2=O)cc1)C(C)C (stereo not given)	8%	0%	-28	1.6%	3%	3.4	9
CCOCCCn1cc(C(=O)c2cc(Br)ccc2O)cc(C#N)c1=O	-2%[15.4 µM]	-28%	-1	.	1%	1.7	29
CCOC(=O)CCCCNCc1ccccc1	-5%	-3%	1	0.9%	10%	-1.0	-7

Bioassay records as filed in PubChem BioAssay.
